TRPML1 inh: inhibitors of human TRPML1 channel | TRPML1-inducible cells, Ca2+ dye fluorescence, FDSS; hits give low values; inhibition of EC80 agonist-evoked calcium signal | hit rate 0.02% among 390,000 | activity change, negative = inhibition, % (no concentration beside the values) | AID 624415 | Q9GZU1; in the data active means activity change below about -50%; inconclusive means about -30% to -50%; inactive means above about -30%;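 further: stimulus is agonist 54-4 at its EC80 concentration; on the % scale 0 is the no-effect control and ±100 the full control effect; compound concentration not given in the record; the text of the record puts the active cut at -80%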
Target sequence (Q9GZU1 whole entry, looked up): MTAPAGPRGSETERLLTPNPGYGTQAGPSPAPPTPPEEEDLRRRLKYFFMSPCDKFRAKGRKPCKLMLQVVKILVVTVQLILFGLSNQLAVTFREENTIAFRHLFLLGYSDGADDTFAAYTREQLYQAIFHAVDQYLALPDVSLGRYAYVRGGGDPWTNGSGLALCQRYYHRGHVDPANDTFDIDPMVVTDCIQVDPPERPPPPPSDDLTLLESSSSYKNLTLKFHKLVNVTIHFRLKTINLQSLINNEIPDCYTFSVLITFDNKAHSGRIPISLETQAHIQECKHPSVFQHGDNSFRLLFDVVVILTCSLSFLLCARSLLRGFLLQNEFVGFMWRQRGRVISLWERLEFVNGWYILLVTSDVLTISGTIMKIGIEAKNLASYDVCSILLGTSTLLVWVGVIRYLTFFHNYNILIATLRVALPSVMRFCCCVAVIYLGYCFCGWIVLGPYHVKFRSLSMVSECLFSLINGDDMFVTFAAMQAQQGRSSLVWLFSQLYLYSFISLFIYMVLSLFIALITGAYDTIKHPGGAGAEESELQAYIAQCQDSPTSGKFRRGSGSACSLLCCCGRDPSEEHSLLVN
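Tet-induced TRPML1-DL cells loaded with Ca8 no-wash calcium dye were read kinetically on FDSS. Compound addition was followed by EC80 agonist 54-4 (4 uM final); inhibition was read over 110 s.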
gsp antag: antagonizes gsp, the McCune-Albright syndrome mutation; hit rate 0.4% among 340,000; AID 624288; gsp-mutant cells, cAMP HTRF, 30 min; control for the full effect not named in the record; Potency, µM (highest dose often 76.9 µM), inactives show at the top dose activity change, negative = inhibition, most hits filed as inhibitors; active = falling curve of any shape with a large fitted effect; inconclusive = falling curve, mostly with a smaller effect; inactive = flat or rising curve; cell line not stated here;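 further: intracellular cAMP measured with PDE inhibitor Ro 20-1724 present during compound exposure; potency means the concentration at half of the fitted maximal effect; on the % scale 0 is the no-effect control and ±100 the full control effect; nearly all actives have a fitted effect of over 65% in size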
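Measurement of cellular cAMP by homogeneous time-resolved fluorescence following a 30 min compound exposure at 37C. The PDE inhibitor […] was present throughout; the assay buffer was DPBS with 0.05% BSA and 0.005% Tween 20.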
TRPML1 agonist: human mucolipin-1 channel agonism; hit rate 0.12% among 410,000; activation, % (concentration not given with the values); TRPML1-expressing cells, Ca2+ dye fluorescence, FDSS; host cell line not named in the record; reference of the full effect not given here; AID 624414; Q9GZU1; in the data active = activation above about 50%; inconclusive = about 30% to 50%; inactive = below about 30%; further: 0% is about no effect; the text of the record puts the active cut at 80%
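In this qHTS format, compounds were pin-transferred onto Ca8-dye-loaded TRPML1-DL cells induced with Tet overnight, and intracellular Ca2+ fluorescence was recorded kinetically for 110 s after a 10 s baseline. A subsequent 4uM final 54-4 (EC80) addition followed by a second 110 s read served as the antagonist phase.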
ClpP mod: qHTS Assay for Activators of ClpP | Potency, µM (highest dose often 57.5 µM), inactives show top-dose activity change, negative = active | ATP-dependent Clp protease proteolytic subunit (Bacillus subtilis (strain 168)), P80244 | AID 651965, 2013 | purified B. subtilis ClpP, FRET peptide cleavage, 20 min | hit rate 1.9% among 340,000; active = well fitted falling curve with a large enough effect; inconclusive = small, poorly fitted or top-dose-only effect; inactive = no such curve, though single readings can be large or run the other way; further: potency means the concentration at half of the fitted maximal effect; the source files actives as falling curves though it sought activators and does not explain the sign; nearly all actives have a fitted effect of over 65% in size; many hits overshoot -100%
Target sequence (P80244 whole entry, looked up): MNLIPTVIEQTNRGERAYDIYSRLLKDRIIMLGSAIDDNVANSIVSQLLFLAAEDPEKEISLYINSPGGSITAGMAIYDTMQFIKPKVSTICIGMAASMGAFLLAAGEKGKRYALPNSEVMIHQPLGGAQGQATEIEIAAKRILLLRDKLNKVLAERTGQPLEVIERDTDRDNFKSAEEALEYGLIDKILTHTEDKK
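Buffer: 100 mM Tris/HCl pH8, 100 mM KCl, 0.05% low protease BSA, 2.5% glycerol, 0.01% Tween-20. ClpP 10 microg/mL final; 20 min RT; delta FRET normalized to ADEP and DMSO controls.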
Menin MLL FP FL: menin-MLL binding inhibition, fluorescein peptide | AID 1766 | Fluorescence polarization, fluorescein-MLL peptide displacement from menin | FP activity change, % at 61.4 µM | 290,000 tested, under 10 active; inconclusive = falling polarisation curve, or a change in total fluorescence; inactive = total fluorescence flat and polarisation flat or rising; no compound was filed as active; the % refers to the polarisation; negative = inhibition;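 further: % of control where 0% means no effect; inhibitors lower the polarisation; unlabelled MLL peptide was the positive control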
gsp agonist: gsp mutant agonism. hit rate 0.13% among 340,000. Potency, µM (highest dose often 76.9 µM), inactives show at the highest dose activation (cAMP increase), most hits filed as activators. gsp mutant cells, cAMP HTRF, 30 min; control for the full effect not named in the record; active = well fitted activation curve with a large enough effect; inconclusive = small, poorly fitted or top-dose-only effect, or another doubt; inactive = no such curve, though single readings can be large or run the other way; cell line not stated here;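 further: phosphodiesterase inhibitor Ro 20-1724 added with compounds to block cAMP breakdown; potency means the concentration at half of the fitted maximal effect; nearly all actives have a fitted effect of over 60% in size; about a fifth of the inactives were tested at one dose only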
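Cells in DMEM/10% FBS with G418 were pretreated with compounds in DMSO plus […] (300 uM stock) for 30 min at 37C. cAMP was measured by HTRF (cAMP-d2 plus anti-cAMP antibody-K) after 30 min at room temperature.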
Numbers without * were called inactive; u = inconclusive; x = no result given; & = joins results of further samples; [ ] = remark or other dose.

SMILES	TRPML1 inh	gsp antag	TRPML1 agonist	ClpP mod	Menin MLL FP FL	gsp agonist
CCCCSCCCNC(=O)c1ccc2c(c1)N(CC)C(=O)c1ccccc1S2=O (configuration not stated)	x	-18.5%	x	-0.2%	-8.9	-12.5%
CC(C)CCN1CCN(Cc2ccoc2)CC1CCO (configuration not stated)	x	7.4%	x	-4.1%	0.4	18.3%
CCN(CC(=O)NCc1ccc(Cl)cc1)C(=O)CSCC(=O)Nc1ccc(C)cc1	7.5	-4.9%	0.3	-2.6%	x	-3.0%[15.4 µM]
CC1(C(=O)OCC(=O)NC(=O)NCc2ccccc2)CC1(Cl)Cl (configuration not stated)	-9.4	5.1%	0.7	x	0.4	-8.2%
O=C(CSC1=NNC(c2ccccn2)S1)Nc1ccc(C(F)(F)F)cc1 (configuration not stated)	42.4	-4.9%	0.6	x	-0.5	17.2%[15.4 µM]
Cc1ccc(-n2c(=O)c3cccnc3n2CC(=O)NCc2ccc(F)cc2)cc1C	-11.9	x	1.1	3.8%	x	x
COc1ccccc1C(=O)Nc1nc2ccccc2s1	0.1	-7.6%	0.7	4.0%	-0.2	-9.2%
O=C(CSc1ncccn1)NC(=O)NCc1ccco1	-7.1	0.3%	0.4	x	-4.2	-13.5%
CCN(C(=O)CN1C(=O)S/C(=C\c2ccc(Cl)cc2)C1=O)C1CCS(=O)(=O)C1 (configuration not stated)	45.2	7.1%	-0.1	-1.7%	0.2	3.5%
CCOC(=O)C1CCN(c2cc(C)nc3cc(-c4cccc(F)c4)nn23)CC1	29.8	0.9%	1.4	140.2%	5.1	26.8%
O=C(c1ccccc1)C1(c2ccccc2)OC1c1ccccc1 (configuration not stated)	73.9	-3.0%	5.2	x	x	-13.9%
C/C(=N\OCC(=O)OCC(=O)NC(=O)c1ccccc1)c1ccc2c(c1)OCO2	-6.5	-2.2%	3.1	x	x	-2.6%[15.4 µM]
O=C(NNS(=O)(=O)c1ccccc1)c1cc2cc3ccccc3nc2s1	6.4	-30.9%	5.5	-9.0%	-0.7	u
CCOc1ccccc1N(CC(=O)NCC1CCCO1)C(=O)CCC(=O)Nc1ccccn1 (configuration not stated)	-8.7	6.4%	-0.2	u	1.9	-10.3%
Cc1cn(S(=O)(=O)c2cc(Br)ccc2Br)cn1	-23.8	5.4%	0.3	-1.6%	9.3	24.2%
COC(=O)c1ccc(COc2ccc(-c3nnn(CC(N)=O)n3)cc2)cc1	-6.0	3.1%	-0.3	x	3.0	-24.7%
O=C(Nc1ccc(NC(=O)c2ccc(Cl)cc2Cl)cc1)c1ccc2c(c1)OCO2	4.0	8.4%	0.5	x	-5.9	u
N#CCC(=O)N/N=C1\CCCCC1C1CCCCC1 (configuration not stated)	7.2	2.0%	-0.4	-1.1%	2.1	29.5%[15.4 µM]
CC(=O)N1c2ccc(S(=O)(=O)N3CCC(C(=O)Nc4cc(C)ccn4)CC3)cc2CC1C (configuration not stated)	-0.4	u	-1.1	-0.5%	0.2	2.7%
CCOC(=O)c1[nH]cnc1N=Nc1c(O)ccc2ccccc12	14.5	-2.9%	4.4	0.7%	-29.5	4.2%
CCc1cc(=O)oc2cc(C)cc(OCC(=O)NC(Cc3ccc(Cl)cc3)C(=O)O)c12 (configuration not stated)	x	1.1%	x	4.7%	-3.2	x
CCOC(=O)c1oc2cc(C)cc(C)c2c1C	14.5	9.9%	1.0	-9.4%	2.4	25.9%
CCC(=O)N1CCc2cc(S(=O)(=O)CCC(=O)N3CCN(c4cccc(C)c4)C(C)C3)ccc21 (configuration not stated)	-5.4	x	0.7	-1.2%	x	x
COc1ccc(OC)c(CNS(=O)(=O)c2cc(-c3cc(C)no3)ccc2OC)c1	8.0	-2.5%	0.9	1.6%	x	u
CCCCNC(=O)CSc1nnc(-c2ccco2)n1C	0.8	3.9%	0.8	-3.2%	2.1	-26.9%
Cc1ccc(S(=O)(=O)N2CCOCC2)cc1C(=O)NCCN1C(=O)S/C(=C\c2ccccc2Cl)C1=O	-10.3	-7.7%	1.4	-3.9%	0.3	6.9%
CCn1c(C)cc2c(c1=O)C(c1ccccc1)C(C(=O)OC)=C(N)O2 (configuration not stated)	17.7	-8.7%	0.6	-2.4%	1.0	-37.8%
CCC(=O)Nc1cccc(NC(=O)c2ccc(Br)cc2)c1	27.5	-4.6%	1.3	x	5.9	-3.4%[15.4 µM]
CC1=C(C(=O)Nc2ccccn2)C(c2ccc(F)cc2)n2ncnc2N1 (configuration not stated)	28.1	0.1%	0.2	1.4%	-1.9	32.5%
CC(=O)c1ccc(OCC(=O)Nc2cccc(S(=O)(=O)N3CCCC3)c2)cc1	-3.2	-28.1%	1.5	0.9%	x	-6.0%[15.4 µM]
O=C(c1ccc(Cn2cc(Br)cn2)o1)N1N=C(C(F)F)CC1(O)C(F)F (configuration not stated)	-12.7	2.3%	1.9	-0.1%	-1.5	4.5%
O=C(N/N=C/c1ccc2c(c1)OCO2)c1cccc2ccccc12	-15.5	9.2%	3.8	x	-3.2	-0.6%
O=C(Cn1c(=O)oc2ccccc21)Nc1ccccc1C(F)(F)F	-14.1	0.3%	0.6	x	-0.7	-7.2%
Cc1ccc(Cl)cc1N1CCN(C(=O)C(=O)N2CCCCC2)CC1	-12.4	10.7%	-0.3	x	1.3	11.5%[15.4 µM]
O=C(NCc1ccccc1Cl)C1CCN(C(=O)c2ccco2)CC1	8.5	9.2%	0.2	x	-1.6	-3.6%
CC(=O)c1cccc(NC(=O)/C(=C\c2ccco2)NC(=O)c2ccco2)c1	2.2	-5.1%	-0.6	-0.6%	x	7.2%
CC1(C)SC(=S)N(NC(=O)Nc2ccccc2)C1N(O)C(=O)Nc1ccccc1 (configuration not stated)	0.5	-10.2%	0.7	0.3%	-0.1	-15.8%
CN(C)C(=O)N1CCCC(C(=O)NCc2cccs2)C1 (configuration not stated)	7.0	0.9%	-0.3	1.9%	3.1	-42.8%[inhibitor]
Cc1oc2ccc(O)c(CN3CCN(C)CC3)c2c1C(=O)Nc1cccc(Cl)c1C	-10.6	x	-0.7	-2.2%	x	x
COc1ccc(-c2nn(-c3ccccc3)cc2/C=C\C(=O)Nc2ccc(C(=O)O)cc2)cc1	42.0	u	0.2	x	0.9	-3.1%
C=CCn1c(-c2ccccc2OCC)n[nH]c1=S	1.5	13.5%	-1.3	-2.9%	2.9	10.7%[15.4 µM]
O=C(COc1ncnc2ccccc12)NC(=O)NCc1ccccc1	-4.8	12.4%	-0.6	-0.4%	1.6	-6.3%
O=S(=O)(NCC(c1ccco1)N1CCc2ccccc2C1)c1ccc(Br)cc1 (configuration not stated)	-5.1	-6.6%	-0.6	x	x	-8.2%[15.4 µM]
COc1cc(C(=O)NCC(c2ccco2)N(C)C)cc(OC)c1OC (configuration not stated)	-3.4	5.7%	1.3	-1.1%	2.7	-8.5%
CCOC(=O)C1CCCN(c2ncnc3c2cnn3-c2ccc(C)c(Cl)c2)C1 (configuration not stated)	-8.3	x	-0.7	-13.0%	x	x
CC1=CC(C)(C)Nc2cc(C)c(C)cc21	3.5	-5.8%	0.0	u	-3.2	-22.9%
Cc1ccc(Oc2ccc(Cl)cc2N)cc1	4.9	-3.3%	-0.7	x	-0.1	-5.5%[15.4 µM]
COc1ccccc1Cc1c(-c2ccc(C)cc2)nc2ccc(Br)cn12	-6.0	x	0.5	-5.0%	x	x
CCc1cccc(-n2c(=O)c3cccnc3n2CC(=O)Nc2ccc(OC)c(Cl)c2)c1	-11.8	x	2.1	3.8%	x	x
CCNC(=O)NNC(=O)C1CC(c2cccs2)=NO1 (configuration not stated)	-6.2	4.0%	0.1	4.5%	-3.2	-20.3%
Cc1ccc(NC(=O)NCCCc2ccccc2)cc1	9.0	-18.6%	0.6	-1.7%	0.1	-1.8%
COc1ccc(C)cc1NC(=O)c1cnc2n(c1=O)CCS2	-9.8	-2.3%	0.3	-4.4%	0.6	-79.3%[inhibitor]
CC(Sc1nc2ccccc2c(=O)n1CCc1ccc(S(N)(=O)=O)cc1)C(=O)NC(N)=O (configuration not stated)	26.7	-3.6%	-0.4	x	-3.2	-2.4%[15.4 µM]
COc1ccc(OCC(=O)N/N=C/C(C)=C/c2ccco2)c(Br)c1	1.0	-4.5%	-0.3	x	x	-4.5%[15.4 µM]
CCCn1c(N)c(C(=O)CN(C)CC(=O)Nc2ccc(C)cc2)c(=O)[nH]c1=O	-1.5	6.6%	0.2	x	x	-2.3%[15.4 µM]
CCc1nn2c(=O)cc(COc3ccc(/C=C(\C#N)C(=O)Nc4ccc(C)cc4)cc3)nc2s1	-9.0	x	-0.3	-0.7%	x	x
O=C(Nc1ccccc1)OC1CCC2CC1CCC2OC(=O)Nc1ccccc1 (configuration not stated)	7.8	-13.3%	3.9	5.9%	2.9	u
C#CC[N+](CC)(CC)CC#Cc1ccccc1	-2.8	13.3%	-0.5	-1.4%	2.3	-12.4%[15.4 µM]
Cc1[nH]c2ccccc2c1/C=N\NC(=O)c1ccccc1Cl	-5.3	x	-0.5	0.3%	x	u
CCOc1ccc(CCNC(=O)CCOc2cc(C)ccc2C)cc1OCC	-9.1	-25.9%	1.1	x	0.2	5.6%[15.4 µM]

Later entries:
SMILES	TRPML1 inh	gsp antag	TRPML1 agonist	ClpP mod	Menin MLL FP FL	gsp agonist
COc1cccc(-c2nc3ccc(O)cc3c(=O)o2)c1	-4.5	-17.1%	-0.5	-4.0%	0.8	u
CSc1ccc(-c2nnn(CC(=O)Nc3sc4c(c3C#N)CCC(C(C)(C)C)C4)n2)cc1 (configuration not stated)	18.5	x	2.2	1.0%	x	x
Cc1cc(C)c(NC(=O)CSc2ccc(-c3ccccn3)nn2)c(C)c1	2.3&-1.4	6.8%	0.0&-0.3	-1.1%&0.0%	x	-8.7%
CCN(CC)S(=O)(=O)c1ccc(N=NC2=C(O)CC(C)(C)CC2=O)cc1	-11.8	-23.2%	-0.2	0.4%	-1.1	-5.7%[15.4 µM]
Cc1nnc(SCc2nc3ccccc3s2)n1-c1ccccc1	10.3	0.0%	-0.2	-3.8%	1.1	u
CC(=O)N1c2ccc(S(=O)(=O)N3CCN(c4cc(Cl)ccc4C)CC3)cc2CC1C (configuration not stated)	4.9	x	1.4	-3.3%	x	x
Cn1c(SCc2cccc(C#N)c2)nc2ccccc2c1=O	29.9	u	3.2	x	0.5	-45.9%[inhibitor]
COc1ccc(-n2c(SCc3nc(-c4ccc(Cl)cc4)no3)nnc2-c2ccncc2)cc1	63.1	x	-0.1	1.4%	x	x
COc1cccc(CNC(=O)c2c(C)nn(-c3cccc(C)c3)c2-n2cccc2)c1	23.8	x	3.8	0.8%	x	x
CC(=O)c1ccc(S(=O)(=O)N2CCc3ccccc3C2)cc1	13.4	4.7%	0.9	-1.4%	-4.2	25.4%[15.4 µM]
CN(O)C(=O)Nc1ccc([N+](=O)[O-])cc1	-14.1	5.7%	0.3	1.6%	3.3	12.6%

Screening results from PubChem BioAssay.

Rows are unselected, and some 2.1% of all compounds hit somewhere here.
